Source: PubChem (National Center for Advancing Translational Sciences (NCATS))
VDR inh: vitamin D3 receptor (human) inhibition; P11473; VDR-SRC2-3 peptide fluorescence polarization, 2 h; Potency, µM, inactives show max response, negative = inhibition, usual class: inhibitors; 0.93% of 400,000 active; active = well fitted inhibition curve with a large enough effect; inconclusive = small, poorly fitted or top-dose-only effect, or another doubt; inactive = no such curve, though single readings can be large or run the other way; note: series mostly up to about 120 µM
Target sequence (P11473 whole entry, looked up): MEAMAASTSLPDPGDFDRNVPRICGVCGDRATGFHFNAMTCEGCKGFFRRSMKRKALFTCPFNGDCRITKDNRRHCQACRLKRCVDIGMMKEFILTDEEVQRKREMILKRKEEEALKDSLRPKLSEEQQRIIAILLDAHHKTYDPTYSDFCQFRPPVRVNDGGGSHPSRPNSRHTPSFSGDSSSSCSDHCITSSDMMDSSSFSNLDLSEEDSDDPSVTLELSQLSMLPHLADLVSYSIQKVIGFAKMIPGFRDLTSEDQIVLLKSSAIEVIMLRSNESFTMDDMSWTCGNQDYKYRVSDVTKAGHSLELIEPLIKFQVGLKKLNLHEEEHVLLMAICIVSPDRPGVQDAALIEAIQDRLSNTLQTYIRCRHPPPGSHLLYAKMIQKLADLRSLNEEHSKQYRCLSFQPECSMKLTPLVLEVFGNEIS
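FP read-out; VDR + SRC2-3 coactivator peptide; 23 nl compound by pintool; 2 h RT incubation; reagents held at 4 deg C, protected from light.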
* hit, by the source's call; u = inconclusive; & = joins results of further samples; ! = not active in a repeat. % is set by controls: 0 for no effect and ±100 for the full control effect; potency is the fitted concentration of half-maximal effect. Not all compounds are listed (hit frequency here may not be typical).

VDR inh | canonical_smiles
-12% | Cc1ccc(N2C(=O)N(CC(=O)Nc3cccc(Cl)c3)C(=O)C2C)cc1 (configuration not stated)
-11% | CC1=CC(c2ccc(Cl)cc2)n2nc(N3C(=O)CCC3=O)nc2N1 (configuration not stated)
-15% | COc1nc(NCC(C)C)nc(Oc2ccc(OCc3ccccc3)nn2)n1
8% | COc1ccc(N2CCN(c3oc(/C=C/c4ccc(F)cc4)nc3C#N)CC2)cc1
5% | COc1ccc(/C=C/C(=O)N2CCCc3ccccc32)c(OC)c1
-3%&12% | CCN(c1cccc(C)c1)S(=O)(=O)c1ccc(-n2cccn2)cc1
1% | NC(=S)c1ccc[n+]([C@@H]2O[C@@H](COP(=O)([O-])OP(=O)(O)OC[C@H]3O[C@@H](n4cnc5c(N)ncnc54)[C@H](OP(=O)(O)O)[C@@H]3O)C(O)C2O)c1 (some centres not stated)
-24% | COc1ccc(/C(O)=C/c2nc3ccccc3n(-c3ccccc3)c2=O)cc1
6% | COc1cc(C(=O)Nc2ccc3c(c2)OCCO3)ccc1OC(F)F
-1% | O=C(O)CCc1ccc(-c2ccc(Cl)cc2)n1CC(=O)O
7% | Cc1ccnn1-c1ccc(C(=O)NCC(c2ccco2)N2CCCC2)cc1 (configuration not stated)
-16% | Cc1ccc(C)c(NC(=O)c2ccc(OCc3c(C)noc3C)cc2)c1
11% | CCCCN(C)CCNS(=O)(=O)c1ccc2c(c1)n(C)c(=O)c(=O)n2C
-11% | CC1CSc2nc3sc4c(c3c(=O)n21)CCCC4 (configuration not stated)
-17% | Cc1ccc(Oc2ccccc2NC(=O)CN2C(=O)NC3(CCCC3)C2=O)cc1
11% | CC(C)c1ccc(NC(=O)CCc2ccccc2)cc1
-8% | O=C(COC(=O)c1ccc(NS(=O)(=O)c2ccc3c(c2)OCCO3)cc1)NC1CCS(=O)(=O)C1 (configuration not stated)
16% | CC(C)C(=O)c1cc2c(cc1NC(=O)c1cccs1)OCCO2
u | O=C(NCC1CCCO1)c1ccc2c(c1)N(Cc1ccccc1)C(=O)CS2=O (configuration not stated)
3% | CCc1ccc(NC(=S)NC2CCN(Cc3ccccc3)CC2)cc1
-21% | Cc1cc(C(F)(F)F)nn1CC(=O)NCc1cccs1
2% | N#CCCN(NC(=O)OCc1ccccc1)C(=O)OCc1ccccc1
-13%&-13% | CC(=O)Nc1ccc(S(=O)(=O)NC2(C(F)(F)F)NC(=O)N(c3ccc(C)cc3)C2=O)cc1 (configuration not stated)
-17% | CCCCCCCC1c2c(c(C)c(C)oc2=O)Oc2c(C)c(C)oc(=O)c21
5% | Cn1c(CCN2CCN(c3ccccn3)CC2)nc2cc(NC(=O)COc3ccccc3)ccc21
7% | COc1ccccc1-n1c(SCC(N)=O)nc2c(c1=O)SCC2
3% | CN(C)c1ccc(/C=C2\NC(=S)N(Cc3ccccc3)C2=O)cc1
12% | O=C(NC1CCCCC1)C(c1ccco1)N(C(=O)c1csnn1)c1ccccc1 (configuration not stated)
9% | O=C(Nc1nnc(COc2ccc(F)cc2)s1)Nc1ccccc1F
-3% | CC1=CC(C)(C)N(C(=O)c2ccc(F)cc2)c2cc3c(cc21)OCO3
-22% | CCn1c(SCC(=O)Nc2nccs2)nnc1-c1cc2cccc(OC)c2o1
-1% | COCCCNC(=O)c1cc2cc(Br)ccc2oc1=O
-13% | Cc1ccc(C(=O)NCN2CCN(c3ccccc3)CC2)cc1
19% | Cn1cc(C(=O)N2CCN(c3ccccn3)CC2)c(=O)c2cc(S(=O)(=O)N3CCOCC3)ccc21
10% | COCCNC(=O)c1cc(-c2cccc(OC)c2)on1
-1% | CC(C)CN1C(=O)c2ccc(NC(=O)c3cccs3)cc2C1=O
0% | O=S1(=O)c2cccc3cccc(c23)N1CCBr
u | C=CCn1c(N)c(C(=O)NCCC2=CCCCC2)sc1=S
-1% | CC1(C)CC(=O)C=C(Nc2ccc(F)cc2F)C1
7% | CC1CCN(C(=S)NC(=O)c2cccs2)CC1
-12% | CN(C(=O)c1cc2n(n1)C(C(F)(F)F)CC(c1ccco1)N2)c1ccccc1 (configuration not stated)
15% | CSc1ccc(CCNS(=O)(=O)c2cc(-c3cc(C)no3)ccc2C)cc1
-12% | Cc1ccc(C(=O)N/C(=C/c2cccs2)C(=O)NCCc2c[nH]c3ccccc23)cc1
3% | Cc1nnc(NC(=O)CSc2nnc(CNC(=O)c3ccc(F)cc3)o2)s1
-11% | CN(C)CCN(C(=O)c1ccc(N2C(=O)CCC2=O)cc1)c1nc2cc3c(cc2s1)OCO3
-6% | O=C(COc1ccc(Br)cc1)Nc1nnc(C2CC2)s1
-8% | O=C(NCCCN1CCN(c2ccc(F)cc2)CC1)C1CCCN(c2ncnc3c2nc2n3CCCCC2)C1 (configuration not stated)
-4% | CC(=O)N1c2ccc(S(=O)(=O)N3CCCC(C(=O)N4CCCCC4)C3)cc2CC1C (configuration not stated)

3 entries already listed, sorted by the value under VDR inh, high to low.
VDR inh | canonical_smiles
-8% | O=C(NCCCN1CCN(c2ccc(F)cc2)CC1)C1CCCN(c2ncnc3c2nc2n3CCCCC2)C1 (configuration not stated)
-11% | CN(C)CCN(C(=O)c1ccc(N2C(=O)CCC2=O)cc1)c1nc2cc3c(cc2s1)OCO3
-12% | CN(C(=O)c1cc2n(n1)C(C(F)(F)F)CC(c1ccco1)N2)c1ccccc1 (configuration not stated)

Other compounds follow.
VDR inh | canonical_smiles
-8% | Cc1ccc(OCC(=O)Nc2ccc(C(=O)O)cc2NC(=O)COc2ccc(C)c(C)c2)cc1C
0% | O=[N+]([O-])c1cccc(CNCc2ccccc2)c1
2% | Cc1ccc(CNc2ncnc3c2cnn3C2CCCCO2)cc1 (configuration not stated)
-30% | O=C(CSc1nnc(CN2CCCC2)n1-c1ccccc1)c1ccc2c(c1)OCO2
-1% | CN(c1ccc(C(=O)Nc2cccc([N+](=O)[O-])c2)cc1)S(C)(=O)=O
-3% | Cc1nc2cnc(Nc3ccccc3)nc2n(CCc2ccccc2)c1=O
8% | CCCn1cc2c(c1-c1ccc(C)cc1)c(=O)n(C)c(=O)n2C
2% | COc1cc(C(=O)OCC(=O)NCCN2C(=O)CSC2=O)ccc1OCc1c(C)noc1C
5% | CCCNC(=O)Nc1ccc(C)cc1C
2% | COc1ccc(OC)c(NC(=O)CSc2nnc3ccc4ccccc4n23)c1
-20% | NC1=NC(=O)C(=Cc2ccccc2)S1
-13% | Cc1cc(OC(C)C(=O)Nc2ccc(S(=O)(=O)Nc3onc(C)c3C)cc2)cc(C)c1Cl (configuration not stated)
-18% | O=C(COc1c(Br)cc(Br)c2cccnc12)Nc1ccccc1F
-9% | CCOc1ccccc1-c1cc(C(=O)N/N=C/c2ccc3c(c2)OCO3)c2ccccc2n1
-1% | CCOC(=O)c1cnn(-c2nc3c(C)cccc3s2)c1C(F)(F)F
-10% | Nc1ccccc1C(=O)/C=C/c1ccc2c(c1)OCO2
1% | Cc1nc(-c2ccccc2)sc1C(=O)CSc1ccccc1
21% | COc1cc2c(cc1OC)CN(CC(=O)Nc1cccc(C(F)(F)F)c1)CC2
2% | Cc1ccc(S(=O)(=O)N2CCOC23CCN(S(=O)(=O)c2cccs2)CC3)cc1
19% | COCCN(CCOC)C(=O)c1c[nH]c2ccc(S(=O)(=O)N(C)c3ccc(F)cc3)cc2c1=O
-13% | O=C1c2ccccc2S(=O)(=O)c2cc(N3CCN(c4ccccn4)CC3)ccc21
-9% | CC(C)c1ccc(-c2nnn(CC(=O)N3CCCCC3)n2)cc1
-2% | COc1ccc(CNC(=O)[C@@H](NC(=O)C2CCN(C(=O)[C@@H](N)Cc3ccccc3)CC2)C(C)C)cc1
6%&3% | COC(=O)C1=C(C)NC(C)=C(C(=O)OC)C1C(=O)OCC(=O)N1c2ccccc2CC1C (configuration not stated)

Pulled by compound from above (4):
VDR inh | canonical_smiles
-1% | CCOC(=O)c1cnn(-c2nc3c(C)cccc3s2)c1C(F)(F)F
-11% | CC1CSc2nc3sc4c(c3c(=O)n21)CCCC4 (configuration not stated)
15% | CSc1ccc(CCNS(=O)(=O)c2cc(-c3cc(C)no3)ccc2C)cc1
-22% | CCn1c(SCC(=O)Nc2nccs2)nnc1-c1cc2cccc(OC)c2o1

Remaining list, next part
VDR inh | canonical_smiles
50µM*! | NC(=O)N1c2ccccc2CC(=O)c2ccccc21
3% | COc1ccc(C)cc1NC(=O)C(Cc1ccccc1)NS(=O)(=O)c1ccc(Br)s1 (configuration not stated)
-14% | O=C1CC(N2CCN(c3ccc(Cl)c(Cl)c3)CC2)C(=O)N1 (configuration not stated)
-14% | CCOC(=O)Cc1csc(NC(=O)/C=C\c2ccccc2)n1
-7% | CC1CC(C)CN(S(=O)(=O)c2cc3c4c(c2)CCC(=O)N4CCC3)C1 (configuration not stated)
4% | Cc1ccc(Cn2ccnc2SCC(=O)NCc2ccccc2)cc1
-14% | COc1ccccc1CNC(=O)C1CCC(CNC(=O)[C@@H]2Cc3ccccc3CN2)CC1 (some centres not stated)
0% | COc1ccc(OCC(=O)Nc2ccc(N3CCOCC3)cc2)cc1
8% | FC(F)(F)c1cccc(N2CCc3cn[nH]c32)c1
-20% | CCOC(=O)c1[nH]c2ccc(OC)cc2c1NC(=O)/C=C/c1ccc2c(c1)OCO2
-2% | Cn1nc(C(=O)OCC(=O)c2ccccc2)c2ccccc2c1=O
-11% | Cc1noc(C)c1COc1ccccc1C(=O)N1CCN(c2cccc(Cl)c2)CC1
-26% | O=C1CCC(C(=O)Nc2nnc(C3CC3)s2)=NN1
8% | O=C(NCCC1CCCCN1S(=O)(=O)c1ccc(F)cc1)C(=O)NCC1CCCO1 (configuration not stated)
-18% | Cc1c(C(=O)OC2CCCCC2)[nH]c2c1C(=O)CC(c1ccccc1Cl)C2 (configuration not stated)
21% | Cc1cc([N+](=O)[O-])nn1CC(=O)NNC(=S)Nc1ccc([N+](=O)[O-])cc1
-5% | CCC(C)(C)NC(=O)CCCSc1nc2ccccc2s1
0% | C=CC1(C)CC(=O)C2(O)C(C)(O1)C(OC(C)=O)C(O)C1C(C)(C)CCC(O)C12C (configuration not stated)
-13% | CC1(C)CC2(CCO1)OC(=O)CC2C(=O)Nc1ccccc1Cl (configuration not stated)
-6% | Cc1cccc(N=C2NC(=O)C(CO)(CO)S2)c1
1% | CC(C)NC(NC(=O)Cc1ccccc1)C(Cl)(Cl)Cl (configuration not stated)
17% | CC(=O)N1CCC(C(=O)N2CCN(S(=O)(=O)c3cccs3)CC2)CC1
u | COc1cccc(C(=O)N2CCN(Cc3cn[nH]c3-c3ccc(F)cc3F)CC2)c1
-4% | CSCC[C@H](NC(=O)NC1CCCC1)C(=O)O
6% | Cc1ccc(NC(=O)Cc2nnc(SCC(=O)NC3=NCCS3)n2C)cc1
-11% | COc1ccc(S(=O)(=O)n2nc(-c3ccc(Cl)cc3)cc2N)cc1
-23% | Brc1cccc(C=Nc2cccc3ncccc23)c1
-7% | O=C(/C=C/c1ccco1)NCC1(c2ccccc2)CCCC1
-10% | Cc1ccc2[nH]c(=O)c(C(c3nnnn3C3CCCC3)N3CCCc4ccccc43)cc2c1 (configuration not stated)
4% | Oc1ccc(Cl)cc1/C=N/c1nccs1
-46% | O=C(Cn1c(O)c(/C=C2\C=Nc3ccccc32)sc1=O)Nc1ccc2c(c1)OCO2
16% | CN(Cc1ccccc1)S(=O)(=O)c1ccc2[nH]cc(C(=O)NCC3CCCO3)c(=O)c2c1 (configuration not stated)
-19% | CCC(NS(=O)(=O)c1cccs1)c1ccc(C)cc1 (configuration not stated)
13% | COc1ccc(C(=O)N2CCN(S(=O)(=O)N3CCOCC3)CC2)cc1OC
-1% | CC(NC(=O)c1cccs1)c1ccccc1 (configuration not stated)
-9% | COc1ccc2cc(CN(Cc3ccco3)C(c3nnnn3C3CCCCC3)C(C)C)c(=O)[nH]c2c1 (configuration not stated)

Some of these compounds in order of length of the SMILES, lowest first:
VDR inh | canonical_smiles
4% | Oc1ccc(Cl)cc1/C=N/c1nccs1
-23% | Brc1cccc(C=Nc2cccc3ncccc23)c1
-19% | CCC(NS(=O)(=O)c1cccs1)c1ccc(C)cc1 (configuration not stated)
-11% | COc1ccc(S(=O)(=O)n2nc(-c3ccc(Cl)cc3)cc2N)cc1
-46% | O=C(Cn1c(O)c(/C=C2\C=Nc3ccccc32)sc1=O)Nc1ccc2c(c1)OCO2
16% | CN(Cc1ccccc1)S(=O)(=O)c1ccc2[nH]cc(C(=O)NCC3CCCO3)c(=O)c2c1 (configuration not stated)

More results follow:
VDR inh | canonical_smiles
-11% | Cc1ccsc1C(=O)C1CCCN(Cc2cccn2-c2ccc(Cl)cn2)C1 (configuration not stated)
-17% | CCNS(=O)(=O)c1ccc(C(=O)Nc2ccccc2)cc1
3% | CCc1ccccc1NC(=O)Cn1cc(S(=O)(=O)N2CCCC2)c(S(=O)(=O)N2CCCC2)c1
-3% | Cc1ccc(CS(=O)(=O)CCC(=O)NCc2ccc3c(c2)OCO3)cc1
0% | Cc1ccc(C)c(CN2C(=O)c3ccccc3Sc3ccc(C(=O)NCCCOC(C)C)cc32)c1
-1%&-9% | CCOc1ccc(NC(=O)c2ccc3snnc3c2)cc1
6% | COc1ccc(S(=O)(=O)NCC(c2ccc3c(c2)OCO3)N2CCOCC2)cc1C (configuration not stated)
10% | Cc1cc(C(=O)O)c(=O)[nH]c1C
19% | O=C(O)CNC(=O)c1ccccc1NC(=O)c1ccco1
-11% | COc1ccc(Cn2c(C(=O)O)c(CNCC(C)c3ccccc3)c3ccc(OC)cc32)cc1 (configuration not stated)
-26% | O=C(Cn1c(-c2ccccc2)c[n+]2ccsc12)c1ccc([N+](=O)[O-])cc1
8% | O=C(OCc1cnc(Cl)s1)c1cccc(Cl)c1Cl
1% | Cc1ccc(S(=O)(=O)CCC(=O)Nc2cccc(S(=O)(=O)N3CCCCCC3)c2)cc1
